Screens deposited in PubChem BioAssay by National Center for Advancing Translational Sciences (NCATS).
SARS PLP yeast – blocks SARS-CoV papain-like protease in a yeast assay | S. cerevisiae expressing SARS-CoV PLpro, growth rescue; control for the full effect not named in the record | Potency, µM (highest dose often 32.9 µM), for the others: top-dose activity, positive = growth rescue | 330,000 tested, 0.19% active | AID 485353; active means well fitted rising curve with a large enough effect; inconclusive means small, poorly fitted or top-dose-only effect; inactive means no such curve, though single readings can be large or run the other way; also: 0% is about no effect; nearly all actives have a fitted effect of over 55% in size; growth read by luminescence after 48 h
RE007 growth inh – less growth of the S. pombe RE007 Vpr strain; Potency, µM (doses to about 92.2 µM), for the others: top-dose activity change, negative = less growth; AID 651644; 360,000 tested, 0.21% active; S. pombe RE007 Vpr strain, BacTiter-Glo ATP luminescence, 24 h; control for the full effect not named in the record; active = well fitted falling curve with a large enough effect; inconclusive = small, poorly fitted or top-dose-only effect; inactive = no such curve, though single readings can be large or run the other way;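 also: % is scaled to controls: 0 for no effect and ±100 for the full control effect; nearly all actives have a fitted effect of over 50% in size; the assay follows cell death caused by Vpr and the record does not say whether a fall means rescue or toxicity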
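Fission yeast RE007 carrying one integrated HIV-1 vpr copy, seeded at OD 0.01 in PMG+AL medium with 23 nL pinned compound. Grown 24 h at 30 degrees; viability read by BacTiter-Glo luminescence after 5 min.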
StopGo reporter – lowers the luciferase signal of an FMDV 2A StopGo reporter; human cells with a luciferase reporter of 2A StopGo recoding; control for the full effect not named in the record; Potency, µM (titrated, usually from 57.9 µM), for inactives: top-dose signal change, negative = less light; 410,000 tested, 1.2% active; AID 1159524; active = well fitted falling curve with a large enough effect; inconclusive = small, poorly fitted or top-dose-only effect; inactive = no such curve, though single readings can be large or run the other way; tested in HEK293T cells; also: % is scaled to controls: 0 for no effect and ±100 for the full control effect; nearly all actives have a fitted effect of over 45% in size; luciferase light after 4 h
An asterisk follows results filed as active; ? = inconclusive; [ ] = remark or other dose. Potency is read from the fitted curve at half-maximal effect.

nr | Molecule | SARS PLP yeast | RE007 growth inh | StopGo reporter
1 | CC(Oc1ccccc1F)c1nnc(SCC(=O)c2c(N)n(C3CC3)c(=O)[nH]c2=O)o1 (configuration not stated) | -2% | -3% | -11%
2 | O=S(=O)(c1ccc(=S)[nH]c1)N1CCCCC1 | -8% | 0% | -15%
3 | O=[N+]([O-])c1cccc(-c2ccc3nnc(SCc4ccccn4)n3n2)c1 | 6% | 6% | -2%
4 | CC1CCCCC1NC(=O)CN1C(=O)NC(C)(c2cc(F)ccc2F)C1=O (configuration not stated) | 3%[6.58 µM] | 4% | 1%
5 | O=C(NCC(=O)N1CC(O)CC1C(=O)N1CCCC1C(=O)OCc1ccccc1)OCc1ccccc1 (configuration not stated) | -6% | 4% | -15%
6 | CC(C)(CNC(=O)c1ccc(S(=O)(=O)Nc2ccc(Cl)cc2)cc1)N1CCOCC1 | -11% | -7% | 2%
7 | C=CC[C@@H](CC(=O)N[C@H](CO)Cc1ccccc1)C(=O)N[C@@H](COC(=O)[C@@H](CC=C)CC(=O)OC(C)(C)C)Cc1c[nH]c2ccccc12 | 1% | 6% | -2%
8 | Cc1nnc(SCC(=O)Nc2cccc(Br)c2)s1 | -7% | 5% | -1%
9 | COc1ccc2c(CC(=O)OCC(=O)Nc3ccc(C)cc3)coc2c1 | -5% | -13% | 0%
10 | CCN(C[C@H]1N[C@@](Cc2ccccc2)(C(=O)OC)[C@H]2C(=O)N(C)C(=O)[C@@H]12)C(=O)Nc1ccc(C)cc1 | 0% | -5% | 8%
11 | COc1ccc(C(C)=O)cc1COC(=O)c1ccc(S(=O)(=O)N(C)C)cc1 | -4% | -9% | -16%
12 | CCOC(=O)c1cc(-c2ccccc2C)n(CC2CC(c3ccc(OC)cc3)=NO2)n1 (configuration not stated) | -22% | 8% | ?
13 | CC(=O)C[C@H](O)CC(=O)[C@@H]1OC(=O)[C@@H](C)C/C=C\Cc2ccccc21 | 0% | -6% | -27%
14 | COC(=O)C1=C(C)NC(C)=C(C(=O)OC)C1C(=O)OCC(=O)c1ccc(Br)cc1 | 3% | -6% | -6%
15 | C(=N\N=C\c1ccncc1)/c1ccncc1 | -4% | -4% | -8%
16 | COCCCN(CC(=O)Nc1ccc(F)cc1)S(=O)(=O)c1cccs1 | 1% | 6% | 1%
17 | CCOC(=O)c1ccccc1NC(=O)c1ccc2nccnc2c1 | -1% | 1% | -29%
18 | COCC(=O)N(c1ccccc1)C(C)C(=O)OC (configuration not stated) | -4% | -14% | 1%
19 | CC(=O)C[C@@H](O)CC(=O)[C@H]1OC(=O)CCCCCCCCc2ccccc21 | 3% | 7% | -2%
20 | NS(=O)(=O)c1ccc(CCNC(=O)c2cccc(S(=O)(=O)N3CCCC3)c2)cc1 | -6% | -15% | -12%

Results in sequence from above:
RE007 growth inh for entries 11 to 18: -9%, 8%, -6%, -6%, -4%, 6%, 1%, -14%
SARS PLP yeast for entries 11 to 18: -4%, -22%, 0%, 3%, -4%, 1%, -1%, -4%

Next part.
nr | Molecule | SARS PLP yeast | RE007 growth inh | StopGo reporter
21 | Cc1ccccc1C(C)NC(=O)COC(=O)Cn1cc(C(F)(F)F)ccc1=O (configuration not stated) | -12% | -4% | -18%
22 | O=C(NC1CCS(=O)(=O)C1)c1ccccc1Cl (configuration not stated) | 0% | 6% | -7%
23 | O=C(C[C@@H]1C/C=C\C[C@H](Cc2ccc(F)cc2)C(=O)OCCNC1=O)NCCO | -2% | -14% | -9%
24 | Cc1ccc([C@H]2C(C(=O)O)=CC[C@@H](c3cccc(C)c3)N2S(=O)(=O)c2ccc(C)cc2)cc1 | 4% | -4% | -22%
25 | Cc1ccc(S(=O)OCC(=O)Nc2cc(Cl)ccc2N2CCOCC2)cc1 (configuration not stated) | -4% | 16% | -4%
26 | COc1ccc(S(=O)(=O)NCC(=O)Nc2ccc(F)cc2)cc1 | 0% | 4% | -1%
27 | COCCNC(=O)c1onc(CSc2ccccc2)c1C(=O)NCCOC | -1% | -14% | ?
28 | Cc1ccc(CNC(=O)c2ccc(N3CCC4(CC3)CC(c3ccccc3)=NO4)c(NC(=O)c3ccccc3)c2)cc1 | -3% | 15% | -9%
29 | CCN(CC)C(=O)/C=C/c1ccccc1 | 0% | -14% | 38%[activator]
30 | Cc1cccc(C)c1NC(=O)CN(C)CC(=O)c1c(N)n(Cc2ccccc2)c(=O)n(C)c1=O | -1% | 0% | ?
31 | CCN(C[C@H]1N[C@@](Cc2ccccc2)(C(=O)OC)[C@H]2C(=O)N(C)C(=O)[C@@H]12)C(=O)c1ccc(C(C)(C)C)cc1 | 4% | 2% | -8%
32 | COc1ccccc1C(=O)Nc1ccc(OCC(=O)N2CC(C)OC(C)C2)cc1 (configuration not stated) | 1% | 6% | 20%
33 | CCCC(NC(=O)C(C)Sc1nnnn1C1CC1)c1ccccc1 (configuration not stated) | -2% | -5% | -3%
34 | Nc1ccccc1Oc1ccc2ccccc2c1 | -4% | 35% | 41%[activator]
35 | O=C1C=C(c2ccccc2C(F)(F)F)C[C@@H](c2ccc3c(c2)OCO3)C1 | -5% | -12% | -6%
36 | COC(=O)[C@@]1(C)[C@H]2C(=O)N(C)C(=O)[C@H]2[C@H]2CN=C(SCc3ccc(C#N)cc3)N21 | 5% | 2% | -5%
37 | O=C(NCC1CC1)c1cccc2c1C(=O)c1ccc(N3CCCC3)cc1S2(=O)=O | -1% | -10% | -26%
38 | CCc1ccc2c(CC(=O)NNC(=O)c3ccncc3)coc2c1 | -5% | -16% | 4%
39 | O=C(COCc1ccccc1)N[C@@H]1c2ccccc2CC[C@@H]1OCc1ccccc1 | 10% | -8%[18.4 µM] | -16%
40 | CCOc1ccc(NC(=S)N2CCN(CCN3C(=O)c4cccc5cccc(c45)C3=O)CC2)cc1 | 0% | -1% | 71%[activator]
41 | CCOC(=O)[C@H]1[C@H]2COc3cc(OC)ccc3[C@@H]2N2C(=O)CN(Cc3ccco3)C(=O)[C@@]12C | -2% | 2% | -4%
42 | Cc1ccc(S(=O)(=O)NCCC(=O)N2CCN(C/C=C/c3ccccc3)CC2)cc1 | 2% | -6% | -26%
43 | O=C(COC(=O)c1ccc(CO)cc1)Nc1ccc2ccccc2c1 | -2% | -7% | 7%
44 | COc1ccc(NS(=O)(=O)c2cccc(C(=O)N3CCCCCCC3)c2)cc1 | 2% | 10% | 34%[activator]
45 | CC(C)(C)N1C(=O)[C@H]2[C@@H](c3ccc(Br)cc3)N3C(=O)N(c4ccccc4)C(=O)[C@@]3(Cc3ccccc3)[C@H]2C1=O | 2% | 4% | -27%
46 | Cn1c(-c2ccc(F)cc2)cc2onc(-c3ccccc3Cl)c2c1=O | 3% | 4% | 44%[activator]
47 | FC(F)(F)c1cccc(-c2ccc(/C=N/Nc3nncc(-c4ccccc4)n3)o2)c1 | -1% | 1% | ?
48 | CCC(=O)N1N=C(c2ccc(NS(=O)(=O)CC)cc2)CC1c1ccc(C)cc1 (configuration not stated) | -5% | 3% | 9%
49 | COc1ccc(C(=O)NC(C)c2ccncc2)cc1S(=O)(=O)N(C)Cc1ccccc1 (configuration not stated) | -5% | 7% | -13%
50 | CCOC(=O)C1=CNS(=O)(=O)NC1CCc1ccccc1 (configuration not stated) | -3% | -1% | -2%
51 | CCOc1ccc(S(=O)(=O)N2CCCCC2)cc1NC(=O)Cc1cccc(C(F)(F)F)c1 | 1% | -6% | ?
52 | COc1ccc(S(=O)(=O)N(C)C[C@H]2Oc3ccc(NS(=O)(=O)c4cn(C)cn4)cc3C(=O)N([C@H](C)CO)C[C@@H]2C)cc1 | -2% | 4% | -11%
53 | CCOC(=O)[C@H]1[C@H]2COc3ccccc3[C@@H]2N2C(=O)c3ccccc3NC(=O)[C@@]12C | ? | -1% | -24%
54 | Cc1nnc(NC(=O)CSc2nnc(C)n2-c2ccc(F)cc2)s1 | 3% | -9% | -8%
55 | Cc1c(C(=O)N2CCN(C(c3ccccc3)c3ccccc3)CC2)oc2ccccc12 | -7% | 1% | ?
56 | CN(C(=O)COC(=O)c1ccc(=O)n(Cc2ccccc2)n1)C1CCCCC1 | -2%[6.58 µM] | -12% | -19%
57 | COc1ccc([C@@]2(C(C)C)ON(c3ccccc3C(F)(F)F)C2=O)cc1 | 0% | -3% | -17%
58 | O=C(CSc1nc2nn(-c3ccccc3)c(=O)c-2c2n1CCCCC2)Nc1cccc(F)c1 | -1% | 1% | -23%
59 | COc1cccc(NC(=O)CN(C)C(C)C(=O)N2CCCC2)c1 (configuration not stated) | -1% | -7% | 11%
60 | CN(C(=O)CSc1nc2ccccc2c(=O)n1-c1ccc(F)cc1)C1CCS(=O)(=O)C1 (configuration not stated) | -6% | -2% | 0%
61 | CCOc1cc(/C=C(\C#N)C(N)=O)ccc1OCc1c(C)no[n+]1[O-] | -2% | -15% | -12%
62 | C[C@H](CO)N1C[C@H](C)[C@@H](CN(C)C(=O)Nc2ccccc2)Oc2ccc(NS(=O)(=O)c3ccc(F)cc3)cc2C1=O | 14% | 9% | 11%
63 | COC(=O)[C@@]1(C)[C@H]2C(=O)N(Cc3ccccc3)C(=O)[C@H]2[C@H]2CN=C(SCc3ccc(Cl)cc3)N21 | 7% | -15% | ?
64 | C#CCOCCOCCOCCNc1nc(N2CCN(C(=O)CCCCCCCCCCNC(=O)[C@H](CO)n3cc(CCCSC)nn3)CC2)nc(N2CCN(C(=O)CCCCCCCCCCNC(=O)[C@H](CCCCN)n3cc(CCO)nn3)CC2)n1 | 1% | 8% | -11%
65 | Cc1ccc(S(=O)(=O)N2CCOCC2)cc1NC(=O)CSCc1c(C)noc1C | 1% | 1% | -14%
66 | CCOc1ccc(NC(=O)COc2ccc(OC)cc2)cc1 | 0% | -1% | 15%
67 | COc1ccc(S(=O)(=O)Nc2cccc3c2O[C@H](CN(C)CC2CCCCC2)[C@@H](C)CN([C@H](C)CO)C3=O)cc1 | 3% | -2% | 110%[activator]
68 | COC(=O)C1=C(C)N(Cc2ccccc2)C(=NCCCOC(C)C)N[C@H]1c1ccccc1 | -5% | -10% | -28%
69 | Cc1ccc(C(=O)N/C(=C\c2ccc(-c3ccc(Br)cc3)o2)C(=O)NCCCN(C)C)cc1 | -1% | 19% | ?
70 | Cc1ccc(/C=C/C(=O)OCC(=O)N(CC(C)C)c2c(N)n(Cc3ccccc3)c(=O)[nH]c2=O)o1 | 1% | 4% | -5%
71 | COc1cc(OC)cc(-c2c(-c3ccc(F)cc3)c3cc(Br)ccc3n2C)c1 | -1% | 5% | -25%
72 | CCN(CC(=O)Nc1ccc(OC)cc1)C(=O)c1ccc2[nH]c3c(c2c1)CC(C)CC3 (configuration not stated) | -1% | 3% | -12%
73 | CCOC(=O)[C@H]1[C@H]2COc3ccc(C)cc3[C@@H]2N2C(=O)CN(Cc3ccc(F)cc3)C(=O)[C@@]12C | -16% | -2% | -22%
74 | COc1ccc(S(=O)(=O)N2CCCCC2)cc1NC(=O)CNc1ccc(F)cc1C | -1% | -6% | 18%
75 | CC(C)(C)OC(=O)n1cc(CCO)c2ccccc21 | 0% | -6% | -8%
76 | CCC(CO)Oc1cc(NC(=O)c2cccc([N+](=O)[O-])c2)c2ncn(C(C)C)c2c1 (configuration not stated) | -4% | -12% | -22%
77 | C#CCOCCOCCOCCNc1nc(N2CCN(C(=O)[C@H]([C@@H](C)CC)n3cc([C@@H](N)Cc4ccc(O)cc4)nn3)CC2)nc(N2CCN(C(=O)[C@H](Cc3cc4ccccc4[nH]3)n3cc([C@@H](N)CC(C)C)nn3)CC2)n1 | 3% | 3% | 2%
78 | CCOC(=O)c1c(C)[nH]c(C(=O)OCC(=O)NCc2ccc(F)cc2)c1C | 3% | -8% | -11%
79 | CCN(C[C@H]1N[C@@](C)(C(=O)OC)[C@H]2C(=O)N(C)C(=O)[C@@H]12)C(=O)Nc1ccc(C(F)(F)F)cc1 | -2% | 13% | -13%
80 | O=C(O)c1ccc(-c2nc(-c3ccc(Cl)c(Cl)c3)cs2)cc1 | 1% | -9% | 0%
81 | Clc1nc(NCCN2CCOCC2)nc(NCc2ccccc2)n1 | 1% | 6% | -6%
82 | COc1cccc(NC(=O)CN(C)C(=O)CCCc2c[nH]c3ccccc23)c1 | -5% | -15% | -18%
83 | O=C(CN1CCN(c2ccc(O)cc2)CC1)Nc1ccc2c(c1)OCCCO2 | 1% | -11% | ?

Fetched one by one from above, three records:
nr | Molecule | SARS PLP yeast | RE007 growth inh | StopGo reporter
83 | O=C(CN1CCN(c2ccc(O)cc2)CC1)Nc1ccc2c(c1)OCCCO2 | 1% | -11% | ?
65 | Cc1ccc(S(=O)(=O)N2CCOCC2)cc1NC(=O)CSCc1c(C)noc1C | 1% | 1% | -14%
79 | CCN(C[C@H]1N[C@@](C)(C(=O)OC)[C@H]2C(=O)N(C)C(=O)[C@@H]12)C(=O)Nc1ccc(C(F)(F)F)cc1 | -2% | 13% | -13%

A portion of the library. The share of hits here may be higher or lower than overall.
